NS1 function inh: inhibitors of influenza NS1 protein function | S. cerevisiae slowed by influenza A NS1, growth recovery by OD600 | Potency, µM (highest dose often 46.1 µM), for the others: at the top dose activity, positive = more growth | AID 2326 | 270,000 compounds, 0.4% hits; note: actives are rising curves; nearly all actives have a fitted effect of over 50% in size
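Read-out: OD600 growth recovery of NS1-expressing budding yeast. Cells grown overnight at 30C in -URA glucose medium, washed, resuspended and diluted 1:100 in 2% galactose assay medium, pH 6.0. Same strain lacking NS1 served as positive control.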
Cruzain Triton: blocks cruzain activity in presence of Triton detergent | 200,000 compounds, 0.43% hits | P25779 | Potency, µM, inactives show max response, negative = inhibition, actives largely listed as inhibitors | purified cruzain, Z-FR-AMC fluorescence, 0.01% Triton; active = well fitted curve in the direction sought with a large enough effect; inconclusive = small, poorly fitted or top-dose-only effect, or another doubt; inactive = no such curve, though single readings can be large; an effect the other way counts as inactive or inconclusive;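 note: plate controls were neutral wells for no effect and buffer without enzyme for full effect; nearly all actives have a fitted effect of over 40% in size; top concentration of the series not given in the record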
Target sequence (P25779 123-467 limits assumed): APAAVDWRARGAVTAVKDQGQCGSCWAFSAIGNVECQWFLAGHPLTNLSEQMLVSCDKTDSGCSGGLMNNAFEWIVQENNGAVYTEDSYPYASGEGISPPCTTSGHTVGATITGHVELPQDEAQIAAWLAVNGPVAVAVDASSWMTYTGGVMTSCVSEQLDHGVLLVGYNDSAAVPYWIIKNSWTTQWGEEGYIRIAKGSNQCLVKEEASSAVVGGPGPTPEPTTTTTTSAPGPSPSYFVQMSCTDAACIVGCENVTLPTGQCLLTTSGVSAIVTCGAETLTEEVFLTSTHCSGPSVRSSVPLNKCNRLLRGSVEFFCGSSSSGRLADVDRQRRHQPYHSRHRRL
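Steps: dispense cruzain (1.5 nM final) in acetate buffer pH 5.5 with DTT and 0.01% Triton X-100; pin-transfer compounds; incubate 15 min RT; add Z-FR-AMC (2 uM final); read fluorescence every 30 s, using the 60 s intensity change.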
Lassa entry inh: inhibitors of Lassa virus binding or cell entry. Lassa virus pseudotype entry inhibition, cell reporter; control for the full effect not named in the record. Potency, µM (highest dose often 37.9 µM), for the others: at the highest dose activity change, negative = inhibition, hits mostly inhibitors. 300,000 compounds, 1.2% hits. AID 540256; active means well fitted inhibition curve with a large enough effect; inconclusive means small, poorly fitted or top-dose-only effect, or effect the other way; inactive means flat fitted curve, though single readings scatter; tested in HEK293 cells; note: % is set by controls: 0 for no effect and ±100 for the full control effect; nearly all actives have a fitted effect of over 50% in size; luciferase read-out
2A StopGo: FMDV 2A StopGo reporter, luciferase signal | human cells with a luciferase reporter of 2A StopGo recoding; control for the full effect not named in the record | 410,000 compounds, 1.2% hits | Potency, µM (doses to about 57.9 µM), inactives show top-dose signal change, negative = less light | AID 1159524; active = well fitted falling curve with a large enough effect; inconclusive = small, poorly fitted or top-dose-only effect; inactive = no such curve, though single readings can be large or run the other way; tested in HEK293T cells; note: % is set by controls: 0 for no effect and ±100 for the full control effect; nearly all actives have a fitted effect of over 45% in size; luciferase light after 4 h
SARS PLP yeast: SARS-CoV PLP inhibition in yeast; Potency, µM (doses to about 32.9 µM), for inactives: at the top dose activity, positive = growth rescue; AID 485353; S. cerevisiae expressing SARS-CoV PLpro, growth rescue; control for the full effect not named in the record; 330,000 compounds, 0.19% hits; note: 0% is about no effect; nearly all actives have a fitted effect of over 55% in size; growth read by luminescence after 48 h
RE007 growth inh: less growth of the S. pombe RE007 Vpr strain. S. pombe RE007 Vpr strain, BacTiter-Glo ATP luminescence, 24 h; control for the full effect not named in the record. Potency, µM (highest dose often 92.2 µM), for inactives: top-dose activity change, negative = less growth. 360,000 compounds, 0.21% hits. AID 651644; active = well fitted falling curve with a large enough effect; inconclusive = small, poorly fitted or top-dose-only effect; inactive = no such curve, though single readings can be large or run the other way;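 note: % is set by controls: 0 for no effect and ±100 for the full control effect; nearly all actives have a fitted effect of over 50% in size; the assay follows cell death caused by Vpr and the record does not say whether a fall means rescue or toxicity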
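Fission yeast strain RE007, carrying one chromosomally integrated HIV-1 vpr copy, was seeded at OD 0.01 in PMG+AL medium with 23 nL pinned compound. After 24 h at 30 °C and 99% humidity, viability was read by BacTiter-Glo luminescence.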
Cruzain inh noDet: inhibitors of Trypanosoma cruzi cruzain without detergent; P25779; AID 1476; Potency, µM, inactives show max response, negative = inhibition, actives largely listed as inhibitors; 200,000 compounds, 2.3% hits; purified cruzain, Z-FR-AMC fluorescence, no detergent; active = well fitted curve in the direction sought with a large enough effect; inconclusive = small, poorly fitted or top-dose-only effect, or another doubt; inactive = no such curve, though single readings can be large; an effect the other way counts as inactive or inconclusive;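 note: plate controls were enzyme without inhibitor for no effect and buffer without enzyme for full effect; nearly all actives have a fitted effect of over 40% in size; top concentration of the series not given in the record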
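Detergent-free condition (0.00005% Triton X-100) in acetate buffer pH 5.5 with DTT. 1.5 nM enzyme and compound were pre-mixed 15 min, then 2 uM Z-FR-AMC substrate added; reaction progress from fluorescence change between first and third reads (60 s).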
MARV entry inh: inhibitors of Marburg virus binding or cell entry. Marburg virus pseudotyped entry inhibition, cell reporter; control for the full effect not named in the record; about a third of the inactives were read at about 46 µM. Potency, µM (series often up to 37.8 µM), without a hit: at the highest dose activity change, negative = inhibition, most hits filed as inhibitors. 300,000 compounds, 1.8% hits; active = well fitted inhibition curve with a large enough effect; inconclusive = small, poorly fitted or top-dose-only effect, or effect the other way; inactive = flat fitted curve, though single readings scatter; tested in HEK293 cells; about a fifth of its hits are not listed in these tables; note: % is set by controls: 0 for no effect and ±100 for the full control effect; luciferase read-out
* hit, by the source's call; ? = inconclusive; / = no result given; & = joins results of further samples; [ ] = another dose, or the depositor's remark. Unless noted, calls come from the whole dose curve; as a rule, active means well fitted rising curve with a large enough effect; inconclusive means small, poorly fitted or top-dose-only effect; inactive means no such curve, though single readings can be large or run the other way. Potency is the fitted concentration of half-maximal effect.

Compound	NS1 function inh	Cruzain Triton	Lassa entry inh	2A StopGo	SARS PLP yeast	RE007 growth inh	Cruzain inh noDet	MARV entry inh
CC(C)CN1C(=O)c2ccc(C(=O)Nc3ccc(OCC(=O)O)cc3)cc2C1=O	-3%	/	15%[46.1 µM]	-19%	1%	3%	/	2%[46.1 µM]
Cc1ccc(-c2nnc(SCC(=O)N/N=C/c3ccccc3C(=O)O)n2-c2ccc(C)cc2)cc1	18%	/	/	-23%	1%	2%	/	/
Cc1c(/C=N/NC(=O)c2ccc(Br)o2)cnn1C	6%	/	20%	46%[activator]	-1%	13%	/	3%[46.1 µM]
CCCCn1c(O)c(C(=O)/C=C/c2c[nH]c3ccccc23)c(=O)[nH]c1=O	7%	/	?	-10%	2%	-4%	/	?
COc1ccc(CN2CCN(c3ncccn3)CC2)c(C)c1C	-10%	/	/	?	-3%	3%	/	/
CCCCCN=Cc1c(C)[nH]n(-c2nc3ccccc3s2)c1=O	-82%	-5.7%	?	-32%	-22%	?	8%	?
Cc1cccc(OCCC(=O)OCC(=O)Nc2c(C)nn(-c3ccccc3)c2C)c1	/	/	?	3%	?	3%	/	/
CC1(C)CC(=O)C(N=Nc2c(F)cccc2F)=C(O)C1	-3%	/	7%	33%[activator]	0%	-2%	/	?

Continuation:
Compound	NS1 function inh	Cruzain Triton	Lassa entry inh	2A StopGo	SARS PLP yeast	RE007 growth inh	Cruzain inh noDet	MARV entry inh
CCCc1c(C(=O)Nc2ccc(F)cc2F)cnn1-c1ccccc1	-33%	/	/	0%	-1%	-6%	/	1%
C=CCn1c(=NC(=O)c2ccc(S(=O)(=O)N3CCCC3)cc2)sc2cc(NC(C)=O)ccc21	22%	-4.0%	-1%	2%	-11%	-13%	20%	-1%
CCc1ccccc1NC(=O)COC(=O)C1C2CC3OC(=O)C1C3C2 (stereo not drawn)	-14%	/	15%[46.1 µM]	7%	5%	-3%	/	-9%[46.1 µM]
CCc1nn(CC(=O)N2CCN(CC)CC2)c(=O)c2cc3sccc3n12	-4%	/	/	?	5%	-11%	/	/
Cc1ccc(/C=C2/C(=N)N3N=C(CC(=O)N4CCCC4)SC3=NC2=O)cc1	19%	/	/	-14%	1%	-12%	/	/
Cc1cc(C)c(C)c(S(=O)(=O)NCc2ccncc2)c1C	3%	/	?	20%	0%	-17%	/	?
CCOC(=O)C1CCN(C(=O)COC(=O)c2nc3nc(C)cc(C)n3n2)CC1	/	/	18%	-24%	7%	5%	/	-1%
COCc1cc(C)n(CC(=O)N2CCCC2)c(=O)c1C#N	4%	/	17%	-21%	1%	-5%	/	6%

Following part:
Compound	NS1 function inh	Cruzain Triton	Lassa entry inh	2A StopGo	SARS PLP yeast	RE007 growth inh	Cruzain inh noDet	MARV entry inh
Cc1nc2cc(NC(=O)NCc3ccco3)ccc2n1C	0%	5.4%	?	47%[activator]	0%	-8%	-4%	21%
COc1ccc(Cl)cc1N(CC(=O)Nc1cccc(SC)c1)S(C)(=O)=O	-1%	-4.4%	-1%	8%	6%	5%	0%	-1%
O=C(CSc1nc(O)cc(=O)[nH]1)N1CCCc2ccccc21	?	2.3%	0%	15%	5%	3%	-5%	-11%
Cc1ccc(S(=O)(=O)CCC(O)c2ccc(Cl)cc2)cc1 (stereo not drawn)	-6%	/	/	-17%	-1%	6%	/	/
NC(=O)NOCc1c(Cl)cccc1Cl	-1%	/	-2%	-3%	6%	-4%	/	-2%[46.1 µM]
Cc1c(C(=O)Nc2cccc(S(=O)(=O)N3CCOCC3)c2)oc2ccccc12	/	/	-21%	-28%	0%	3%	/	?
N=C1SCC(=O)N1/N=C/c1ccccc1	/	/	/	54%[activator]	-2%	-10%	/	-1%[46.1 µM]
O=C(NCc1ccc(Cl)cc1)C1CCN(S(=O)(=O)c2ccccc2)CC1	-5%	-1.3%	?	-24%&-16%	1%	-7%	2%	-4%

Carrying on:
Compound	NS1 function inh	Cruzain Triton	Lassa entry inh	2A StopGo	SARS PLP yeast	RE007 growth inh	Cruzain inh noDet	MARV entry inh
Cn1c(=O)c2c(-c3ccccc3)n(Cc3ccccn3)cc2n(C)c1=O	7%	4.2%	17%	-24%	-5%	-13%	-3%	14%
Cc1ccccc1C(=O)N1CCCCC1CCN1CCCCC1 (stereo not drawn)	/	0.3%	4%[46.1 µM]	-9%	/	/	12%	-1%[46.1 µM]
O=C(c1ccccc1)c1c[nH]c(C(=O)NNc2cccc(Cl)n2)c1	4%	/	11%[46.1 µM]	0%	0%	8%	/	-15%[46.1 µM]
O=C(CSc1nnc(-c2ccc(Br)cc2)o1)Nc1cccc(C(=O)O)c1	-8%	/	?	20%	-2%	-3%	/	?
Cc1ccc2nc(-c3ccc(Br)cc3)cn2c1	-4%	/	/	-91%	-9%	1%	/	/
COCCNC(=O)CN(C(=O)Cn1nnc2ccccc21)c1ccc(C)cc1	2%	/	/	-13%	0%	17%	/	/
O=C(COC(=O)c1ccc(O)cc1)c1ccc2c(c1)OCCO2	/	/	-17%	0%	3%	-3%	/	28%
S=C(Nc1ccccc1)N1CCN(Cc2ccccc2)CC1	-32%	/	1%	-5%	1%	-2%	/	18%

Additional compounds.
Compound	NS1 function inh	Cruzain Triton	Lassa entry inh	2A StopGo	SARS PLP yeast	RE007 growth inh	Cruzain inh noDet	MARV entry inh
CC(C)[C@@H](C(=O)O)N(Cc1cccc(CN([C@H](C(=O)O)C(C)C)S(C)(=O)=O)c1)S(C)(=O)=O	23%	/	/	7%	21%	-8%	/	/
COc1ccc(C(=O)n2nc(C#N)c(C#N)c2N)cc1	-2%	/	/	-18%	1%	-13%	/	/
Nc1ncc(Br)cc1S(=O)(=O)Nc1cc(C(F)(F)F)cc(C(F)(F)F)c1	-60%	/	14µM*	-9%	-14%	5%	/	?
CCC(=O)Nc1ccc(NC(=O)CSc2nnnn2C(C)C)cc1	5%	0.2%	-6%	-4%	8%	24%	-3%	13%[46.1 µM]
CCNc1nc(SC(C)C(=O)OC)nc(N(C)C)n1 (stereo not drawn)	/	/	-5%[46.1 µM]	-2%	-7%	12%	/	?
O=C1CCC(C(=O)N2CCCCCC2)CN1Cc1cccc(C(F)(F)F)c1 (stereo not drawn)	-5%	/	/	-14%	-2%	-1%	/	/
Cc1ccc(C2NC(c3ccc(C)cc3)C([N+](=O)[O-])C(C)(C)C2[N+](=O)[O-])cc1 (stereo not drawn)	7%	0.6%	?	-9%	0%	6%	?	?
COc1ccccc1N(CC(=O)Nc1ccccc1C(=O)NCC(C)C)S(C)(=O)=O	-4%	0.6%	3%	/	4%	11%	2%	4%

Fetched by compound from the list above (five):
Compound	NS1 function inh	Cruzain Triton	Lassa entry inh	2A StopGo	SARS PLP yeast	RE007 growth inh	Cruzain inh noDet	MARV entry inh
CCc1ccccc1NC(=O)COC(=O)C1C2CC3OC(=O)C1C3C2 (stereo not drawn)	-14%	/	15%[46.1 µM]	7%	5%	-3%	/	-9%[46.1 µM]
CCCc1c(C(=O)Nc2ccc(F)cc2F)cnn1-c1ccccc1	-33%	/	/	0%	-1%	-6%	/	1%
Cc1ccc(-c2nnc(SCC(=O)N/N=C/c3ccccc3C(=O)O)n2-c2ccc(C)cc2)cc1	18%	/	/	-23%	1%	2%	/	/
O=C(CSc1nc(O)cc(=O)[nH]1)N1CCCc2ccccc21	?	2.3%	0%	15%	5%	3%	-5%	-11%
Cc1ccc(C2NC(c3ccc(C)cc3)C([N+](=O)[O-])C(C)(C)C2[N+](=O)[O-])cc1 (stereo not drawn)	7%	0.6%	?	-9%	0%	6%	?	?

The results go on.
Compound	NS1 function inh	Cruzain Triton	Lassa entry inh	2A StopGo	SARS PLP yeast	RE007 growth inh	Cruzain inh noDet	MARV entry inh
CCCn1nnc(NC(=O)c2ccccc2Cl)n1	-1%	2.4%	8%	/	-2%	-5%	-10%	22%
COc1ccc(C(=O)N(C)CC(=O)Nc2cccc(F)c2)cc1S(=O)(=O)NC1CCCC1	/	/	2%	40%[activator]	1%	13%	/	1%[46.1 µM]
Cc1nc2nc(SCC(=O)c3ccccc3)[nH]c2cc1Br	6%	/	-12%	53%[activator]	-2%	6%	/	0%
COc1cc(C(=O)NC(C)c2cc(C)ccc2C)ccc1OCC(=O)N1CCOCC1 (stereo not drawn)	/	/	7%	-13%	5%	-2%	/	?
CC1CC2(C)C(=CC1=O)CCC1C2C(O)CC2(C)C1CCC2(O)C(=O)CO (stereo not drawn)	/	/	0%[46.1 µM]	-17%	/	1%	/	?
COc1ccc(NC(=O)c2c(NC(=O)COc3ccc(Cl)cc3)sc3c2CCCCC3)cc1	/	3.8%	-19%[46.1 µM]	60%[activator]	/	/	8%	/
Clc1cccc(CN2CCCCCC2)c1Cl	0%	/	?	1%	6%	6%	/	-4%
O=C(NCC1CCCO1)C(c1cccs1)N(Cc1ccccc1Cl)C(=O)c1ccc(-c2ccccc2)[nH]1 (stereo not drawn)	26%	-1.1%	?	-2%	1%	/	-14%	?

New compounds follow:
Compound	NS1 function inh	Cruzain Triton	Lassa entry inh	2A StopGo	SARS PLP yeast	RE007 growth inh	Cruzain inh noDet	MARV entry inh
O=C(c1ccccc1)N1CCN(C(=O)N2CCOCC2)CC1	7%	4.1%	-2%	-7%	?	12%	2%	-10%
CCOc1ccc(S(=O)(=O)N2CCCC(C(=O)N3CCOCC3)C2)cc1Cl (stereo not drawn)	-17%	/	-2%	6%	-1%	-5%	/	?
O=C(N/N=C/c1cccc([N+](=O)[O-])c1)c1cc2c(ccc3ccccc32)o1	4%	-13%	-14%	-9%	-1%	-18%	10µM*	-7%
C=CCOc1ccc(/C=N/NC(=O)CN(c2cc(Cl)ccc2OC)S(=O)(=O)c2ccc(C)c([N+](=O)[O-])c2)cc1	10%	0.0%	?	0%	-6%	9%	?	2%
CCNC(=O)Cn1c(=O)c2c(ncn2Cc2ccccc2)n(Cc2ccccc2)c1=O	2%	5.7%	-5%	9%	?	12%	-4%	12%

Rows were taken by chance, and some 4.5% of all compounds hit somewhere here.
